Assay outcomes (PubChem BioAssay)
Sa growth 42C = S. aureus growth inhibition; actives 0.53% (n = 170,000); AID 720641; relative growth, % (test concentration not listed); S. aureus RN4220 growth, OD600, 20 h, 42 °C; hits give low values;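 active means growth at 42 °C up to 50% and 20 or more points under that at 30 °C, or under 10% at both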;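 further: 300 nL library stock went into each well; scaled to the means of positive and negative controls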
HCMV NEC inh = disrupts HCMV UL50-UL53 complex binding; inhibition, % (concentration not given with the values); actives 0.15% (n = 190,000); HTRF UL50-UL53 interaction, normalized percent inhibition;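 active means both replicates at 50% or more, plus weaker picks with an unusually low signal ratio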;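 further: stock transfer was 100 nL into about 20 µL; 0% = negative control wells and 100% = wells with untagged competitor protein; inactives centre near -12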
GIV Gai3 FP = GIV-Galpha-i interaction inhibition. actives 0.42% (n = 210,000). Galpha-i3/FITC-GIV peptide fluorescence polarization, 90 min; hits give low values; scaled: aluminum fluoride 0%, vehicle 100%. percent of control (FP), % (no concentration beside the values);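 active means replicate mean at 85% of control or lower, very high polarization wells dropped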;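 further: wells of about 15 µL received 100 nL stock; the first replicate is given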
Target sequence (P08753 whole entry, looked up): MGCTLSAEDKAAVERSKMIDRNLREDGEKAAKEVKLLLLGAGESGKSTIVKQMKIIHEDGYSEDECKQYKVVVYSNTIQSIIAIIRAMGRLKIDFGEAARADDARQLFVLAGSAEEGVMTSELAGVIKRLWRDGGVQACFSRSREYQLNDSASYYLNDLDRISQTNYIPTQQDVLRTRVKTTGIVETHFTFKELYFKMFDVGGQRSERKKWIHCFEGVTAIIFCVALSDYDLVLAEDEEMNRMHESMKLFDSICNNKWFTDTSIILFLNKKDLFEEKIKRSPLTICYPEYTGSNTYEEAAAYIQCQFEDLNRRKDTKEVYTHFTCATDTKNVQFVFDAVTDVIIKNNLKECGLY
Sa growth 42C second temp = recorded beside Sa growth 42C, whose call it bears; relative growth, %; measured here: growth at 30 °C;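 optical density after 20 h as mean of two plates; 100% = untreated growth and lower means inhibition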
* hit, by the source's call; / = not tested or not shown; & = joins results of further samples.

SMILES	Sa growth 42C	Sa growth 42C second temp	HCMV NEC inh	GIV Gai3 FP
O=C(CNc1ncnc2ccccc12)OCCOc1ccccc1	101	98	-21	/
CCc1ccc(NC(=O)Nc2ccc3c(c2)oc(=O)n3CC)cc1	/	/	15	105
COc1ccc(C(=O)Oc2ccc(/C=N/N=C3\NC(=O)CS3)cc2OC)cc1	101	95	-9	104
N#C/C(=C\c1ccc2c(c1)OCO2)C(=O)Nc1ccc(-c2nnc3n2CCCCC3)cc1	84	84	-36	/
CC1CN(C(=O)c2cc3c(s2)CCCC3)CC(C)O1 (stereo not given)	104	91	-18	/
CC1SC(=Nc2ccc(S(=O)(=O)N3CCOCC3)cc2)NN=C1C12CC3CC(CC(C3)C1)C2 (stereo not given)	106	85	-39	/
Oc1ccc(CN2CCCC2)c2cccnc12	84	61	/	103
CC(C)(C)CC(=O)Nc1nnc2n1CCS2	103	91	/	105
COc1cc(O)c2c(=O)cc(-c3ccccc3)oc2c1	89	91	-8	104
CCOC(=O)c1cc(-c2ccc(C)cc2)n(CCCC(=O)Nc2cc(C)ccc2C)c1	89	87	/	103
Cc1nn(-c2ccccc2)c(N)c1C1(O)C(=O)Nc2ccccc21 (stereo not given)	84	93	-31	/
CN1C(=O)/C(=C\c2ccccc2)Sc2ccc(C(=O)NCc3cccs3)cc21	132	78	/	97
CC1CCCCN1C(=O)CSc1nnc(NCc2ccccc2)s1 (stereo not given)	119	92	-13	/
Cc1cc(N2CCN(c3ccccc3)CC2)nc2cc(Cl)ccc12	110	115	-15	101
NCCC(=O)N1CCCC1	92	93	4	/
COc1cccc(CNC(C)(C)CO)c1OCc1ccc(Cl)cc1	107	83	/	102
O=S(=O)(c1ccc(N(C(F)F)S(=O)(=O)c2ccc(Cl)cc2)cc1)N1CCOCC1	98	78	11	109
COc1ccc(-c2[nH]c(-c3ccccc3)nc2SCC(=O)Nc2nccs2)cc1	/	/	-16	104
O=C(COc1c(-c2ccccc2)oc2ccccc2c1=O)N1CCOCC1	101	88	/	105
Cc1cc2nnc(SC(C)C(=O)Nc3ccccc3)n2c2ccccc12 (stereo not given)	/	/	-18	100
CC(C)N1C(=O)C2C(c3ccccc3O)NC(C)(C(=O)O)C2C1=O (stereo not given)	114	88	4	107
Brc1c(-c2ccccc2)nc2n1-c1ccccc1C2	102	87	7	105
O=C(O)c1cccc(Nc2nc(-c3ccccc3)c3ccccc3n2)c1	68	46	/	100
COC(=O)c1c(C)[nH]c(C(=O)N2CCC(CC(=O)NCc3ccc(OC(C)C)cc3)CC2)c1C	/	/	-14	108
O=C(COc1ccccc1Cl)Nc1ccccc1OCc1cc(=O)n2ccccc2n1	81	94	/	104
Additional results
SMILES	Sa growth 42C	Sa growth 42C second temp	HCMV NEC inh	GIV Gai3 FP
CCn1c(=O)c2cc(C(=O)N(C)Cc3ccco3)sc2c2ccccc21	95	89	/	100
O=C(c1ccco1)N1CCN(Cc2ccc(F)cc2)CC1	111	94	-21	103
O=C(CCCn1c(=O)c2cccn2c2ccccc21)NCC1CCCO1 (stereo not given)	83	84	/	99
CCOc1cccc(C(=O)Nc2cc(-c3nc4ccccc4s3)ccc2Cl)c1	/	/	2	95
CNC(=S)Nc1ccc2[nH]c(=O)[nH]c2c1	83	90	-7	/
COc1ccc(C(CNC(=O)c2oc3ccccc3c2C)N2CCCCC2)cc1 (stereo not given)	105	91	-28	104
CCOC(=O)c1cnc2ccc(OCC)cc2c1N(C)Cc1ccccc1	115	87	/	101
O=C(OC1CCOC1=O)C1CCN(S(=O)(=O)c2ccccc2)CC1 (stereo not given)	92	95	-2	/
S=C(NCC1CCCO1)SCc1cn2cccnc2n1 (stereo not given)	70	73	-12	/
O=C(Nc1c(-c2ccc(F)cc2)nc2ccccn12)c1cccc(F)c1	110	88	16&-11	109&101
Cc1ccc(NC(=O)c2c(C)cc(C)nc2SCC(=O)Nc2nc3ccccc3s2)cc1	/	/	2	97
O=C(Cn1ncc2c3ccccc3n(Cc3cccc(Cl)c3)c2c1=O)N1CCCC1	93	79	-11	184
O=C(NCC(c1cccs1)N1CCOCC1)Nc1ccccc1Cl (stereo not given)	94	92	-18	/
CN(C)CP(=O)(O)CCc1ccccc1	84	96	-6	101
NNC(=O)CNC(=O)c1cc(Cl)ccc1Cl	95	80	-9	106
Cc1cc(=O)n2nc(N(C)CC(=O)NCc3ccc(Cl)cc3)sc2n1	106	89	-16	100
Cc1ccnc(SC2CC(=O)N(c3ccc(C)c(C)c3)C2=O)n1 (stereo not given)	112	98	-11	103
CCOc1ccccc1NCC(=O)Nc1ccccc1C#N	79	93	-36	/
CN(C)c1ccc(-c2noc(-c3ccc(Br)cc3)n2)cc1	/	/	-36	110
COc1cc(NS(=O)(=O)c2ccc(N3C(=O)c4ccccc4C3=O)cc2)nc(OC)n1	82	78	-45	103
CCN1CCN(c2nc(-c3ccccc3)cc(=O)[nH]2)CC1	/	/	-17	99
CCOC(=O)c1cn[nH]c1S(=O)(=O)N1CCC(N2CCCCC2)CC1	/	/	-3	98
O=C(NC1CC2CCC1C2)c1ccc(CN2CCN(c3ccccc3)CC2)cc1 (stereo not given)	111	99	-4	102
Cc1nc(S(=O)(=O)N(C)c2ccccc2)c(C#N)c(C)c1Cl	90	89	5	99
CCCCN1C(=O)c2ccc(C(=O)Nc3ccc(S(=O)(=O)N(C)C)cc3)cc2C1=O	86	98	-41	/
(listing goes on)
SMILES	Sa growth 42C	Sa growth 42C second temp	HCMV NEC inh	GIV Gai3 FP
COCCNc1ncnc2c1c(-c1ccccc1)cn2-c1ccc(C)c(Cl)c1	84	74	/	103
Cc1cc2oc(C(=O)N(Cc3ccccc3)C3CCS(=O)(=O)C3)cc(=O)c2cc1C (stereo not given)	114	83	-19	96
COc1ccc2c(c1)c1c(c(=O)n(-c3cccc(C)c3)c(=O)n1Cc1cccc(Cl)c1)n2C	100	94	/	104
O=C(OCc1ccco1)c1cc2ccccc2oc1=O	93	75	-74	101
CCC1CCc2nc3sc(C(=O)Nc4ccc(F)c(F)c4)c(N)c3cc2C1 (stereo not given)	109	94	-15	101
Cc1ccc2[nH]c3c(=O)n(CC(=O)N4CCCC(C)C4)ncc3c2c1 (stereo not given)	105	92	/	106
CN1C(=O)/C(=C2\SC(N3CCOCC3)=NC2=O)c2ccccc21	90	87	-9	98
COc1cc(C)cc2oc(=O)c(CC(=O)NCCc3ccc(Cl)cc3)c(C)c12	107	76	-2	99
O=C(CCNS(=O)(=O)c1ccc2c(c1)OCCO2)NC1CCN(Cc2ccccc2)CC1	105	97	4	/
CC(C)NC(=O)CSc1nnc(Cc2ccccc2)n1Cc1ccco1	115	111	-3	101
CCC(=O)N1c2ccc(S(=O)(=O)CCC(=O)Nc3cccc(-c4ccno4)c3)cc2CC1C (stereo not given)	117	89	-6	109
CC1(C)COC(CC(=O)c2ccc(Cl)cc2)=N1	76	73	-12	105
CCOC(=O)N1CCN(C(=O)CSc2c3c(nc4ccccc24)CCCC3)CC1	94	94	-6	103
COc1ccc(C2CC(=O)C3=C(C2)Nc2ccccc2NC3c2ccc(OC(C)=O)c(OC)c2)cc1 (stereo not given)	/	/	-25	101
O=C(OCCN=C1NS(=O)(=O)c2ccccc21)c1ccccc1	103	111	2	98
CCc1ccccc1Nc1nc2ccccc2c2nncn12	121	94	6	108
CC1CCCCN1C(=O)Cn1ncc2c1-c1ccccc1OC2 (stereo not given)	114	93	/	100
CCCNC(=O)C1CCC(Cn2c(=O)c3sccc3n(Cc3ccccc3F)c2=O)CC1 (stereo not given)	96	91	/	97
CCc1ccc2[nH]c3nc(SCC(=O)OC(C)C)nnc3c2c1	74	92	-6	105
Clc1cc(Cl)c2nc(Oc3cccc(N4CCOCC4)c3)sc2c1	100	89	-6	100
Cc1ccccc1CNC(=O)C(C)N(c1ccccc1)S(C)(=O)=O (stereo not given)	99	83	-35	104
CCN(Cc1ccncc1)C(=O)c1cc2ccccc2oc1=O	110	83	-33	/
Cc1ccccc1NC(=O)c1cc(=O)[nH]c2ccccc12	125	88	-4	112
Cc1cc(N2CCCCC2)nc2ccc(NC(=O)c3cccc(Cl)c3)cc12	98	88	/	97
CCCCNC(=O)C1CCN(S(=O)(=O)c2ccc3c(ccn3CC)c2)CC1	95	98	/	107

Profiles from above.
CCOC(=O)N1CCN(C(=O)CSc2c3c(nc4ccccc24)CCCC3)CC1 across the screens: Sa growth 42C: 94; Sa growth 42C second temp: 94; HCMV NEC inh: -6; GIV Gai3 FP: 103
N#C/C(=C\c1ccc2c(c1)OCO2)C(=O)Nc1ccc(-c2nnc3n2CCCCC3)cc1 across the screens: Sa growth 42C: 84; Sa growth 42C second temp: 84; HCMV NEC inh: -36; GIV Gai3 FP: /
O=C(CNc1ncnc2ccccc12)OCCOc1ccccc1 across the screens: Sa growth 42C: 101; Sa growth 42C second temp: 98; HCMV NEC inh: -21; GIV Gai3 FP: /

Next section.
SMILES	Sa growth 42C	Sa growth 42C second temp	HCMV NEC inh	GIV Gai3 FP
CCc1ccccc1NC(=O)Cc1csc(C)n1	/	/	-14	107
O=C1C2=C(C(=O)c3ccccc31)C(c1ccccc1O)c1sc(=O)[nH]c1S2 (stereo not given)	29	21	-12	/
O=C(N1CCOCC1)N1CCc2ccccc21	99	101	-30	100
Cc1ccc(-c2csc(-c3ccno3)n2)cc1	68	60	-74	105
O=S1(=O)c2ccccc2NC(c2ccc(F)c(F)c2)N1Cc1ccc(F)cc1 (stereo not given)	/	/	3	101
COC(=O)c1cc(Cn2cc(C(F)(F)F)cc(Cl)c2=O)oc1C	91	104	6	/
CCc1cnc2c(c1SCc1cc(OC)cc(OC)c1)c(=O)n(C)c(=O)n2C	122	92	/	105
CC(=O)Nc1cccc(-c2nnc(-c3cccc(C)c3)o2)c1	111	90	-24	108
O=C(NCc1ccccc1)C(C(=O)c1ccccc1)n1ccccc1=O (stereo not given)	97	90	-11	/
CCOc1ccccc1C(=O)Oc1cccc(-n2cnnn2)c1	/	/	-20	105
O=C(O)C1C2CCC(C2)C1C(=O)NCCCN1CCCC1=O (stereo not given)	100	95	-25	102
O=S(=O)(Nc1ccc(N2CCCCC2)cc1)c1ccc(-c2cc(C(F)(F)F)on2)s1	100	90	-37	106
COc1cccc(OC)c1C(=O)NC(=S)Nc1ccc2[nH]c(=O)[nH]c2c1	112	93	-19	107
CCOc1cc(C(=O)N2CCN=C2SC)cc(OCC)c1OCC	85	87	-37	100
Cc1ccc(CNS(=O)(=O)c2cc(-c3ccc(=O)[nH]n3)ccc2Cl)cc1	/	/	-32	105
CCn1cc(CNC(=S)Nc2cccc(Cl)c2C)cn1	103	106	6	97
CCOc1ccc(C2CC(=O)Nc3c2c(=O)nc(SCc2ccccc2C)n3C)cc1OC (stereo not given)	95	94	-6	99
COC(=O)C1=C(C)n2nnnc2NC1c1ccc(Cl)cc1 (stereo not given)	111	75	-14	96
CCOC(=O)c1cccc(NC(=O)c2nn(-c3ccc(OC)cc3)c(=O)c3c2c2ccccc2n3C)c1	106	87	-11	102
N#CC(C#N)=CNc1ccc(S(=O)(=O)c2ccc(NC=C(C#N)C#N)cc2)cc1	95	83	-31	106
Cc1cccc(C(=O)NCCc2sc(-c3ccccc3)nc2C)c1	82	84	/	102
Cc1ccc(CN(C)C(=O)COc2ccccc2C#N)o1	88	95	-6	/
COc1ccc(CCN2C(=O)c3ccccc3CC2(C)C(=O)NC2CCC(C)CC2)cc1OC (stereo not given)	/	/	-1	102
CCCNC(=O)CCc1c(C)nc2cc(-c3ccccc3)nn2c1C	100	89	/	104
O=C(OCC(=O)c1ccco1)c1ccc(S(=O)(=O)NCc2ccco2)cc1	66	90	-2	/

Another view of four compounds above.
CCOc1ccccc1C(=O)Oc1cccc(-n2cnnn2)c1
  Sa growth 42C = /
  Sa growth 42C second temp = /
  HCMV NEC inh = -20
  GIV Gai3 FP = 105
O=C(O)C1C2CCC(C2)C1C(=O)NCCCN1CCCC1=O (stereo not given)
  Sa growth 42C = 100
  Sa growth 42C second temp = 95
  HCMV NEC inh = -25
  GIV Gai3 FP = 102
O=S(=O)(Nc1ccc(N2CCCCC2)cc1)c1ccc(-c2cc(C(F)(F)F)on2)s1
  Sa growth 42C = 100
  Sa growth 42C second temp = 90
  HCMV NEC inh = -37
  GIV Gai3 FP = 106
COc1cccc(OC)c1C(=O)NC(=S)Nc1ccc2[nH]c(=O)[nH]c2c1
  Sa growth 42C = 112
  Sa growth 42C second temp = 93
  HCMV NEC inh = -19
  GIV Gai3 FP = 107

Further records
SMILES	Sa growth 42C	Sa growth 42C second temp	HCMV NEC inh	GIV Gai3 FP
Cc1ccc(N2C(=O)CSC23C(=O)N(CC(=O)NCCc2ccccc2)c2ccccc23)cc1 (stereo not given)	108	98	/	99
CC(C)(C)OC(=O)N1CCC(c2cc(=O)n3[nH]cc(C(=O)NC4CCCC4)c3n2)CC1	81	93	0	97
Cc1cc(OCc2nc(C)c(C(=O)NCc3ccc4c(c3)OCO4)s2)ccc1Cl	/	/	1	109
CCOCCSc1nc(=O)n2cc(C)ccc2n1	87	79	-52	100
Cc1ccccc1NC(=O)CSc1cn(CC(=O)N2CCCC2)c2ccccc12	111	102	/	109
CS(=O)(=O)c1ccc(Br)cc1	82	85	-16	/
CC(C)c1ccc(S(=O)(=O)c2nnn3c2nc(N2CCN(C)CC2)c2sccc23)cc1	105	76	/	105
Cc1ccc(C)c(N2CCN(C(=O)C3CCN(S(=O)(=O)c4cccc5cccnc45)CC3)CC2)c1	/	/	-27	104

Looked up by compound from the entries so far, two records:
SMILES	Sa growth 42C	Sa growth 42C second temp	HCMV NEC inh	GIV Gai3 FP
CS(=O)(=O)c1ccc(Br)cc1	82	85	-16	/
CC(C)(C)OC(=O)N1CCC(c2cc(=O)n3[nH]cc(C(=O)NC4CCCC4)c3n2)CC1	81	93	0	97

Outcome played no part in choosing rows, and some 0.79% of all compounds hit somewhere here.
